Vaccinia mCherry: inhibitors of vaccinia virus infection (mCherry reporter signal). Vaccinia virus mCherry reporter infection, fluorescence; about a quarter of the inactives have no number. Potency, µM (highest dose often 36.5 µM), for inactives: at the top dose activity change, negative = inhibition, most hits filed as inhibitors. 0.63% of 310,000 active. AID 720579; active = well fitted inhibition curve with a large enough effect; inconclusive = small, poorly fitted or top-dose-only effect; inactive = no such curve, though single readings can be large or run the other way; tested in A549 cells; further: nearly all actives have a fitted effect of over 35% in size; inactives centre near -10
Vaccinia Venus: inhibitors of vaccinia virus (Venus reporter). Vaccinia virus Venus reporter expression, fluorescence. Potency, µM (top dose mostly 36.5 µM), inactives show at the top dose activity change, negative = inhibition, actives largely listed as inhibitors. 0.46% of 330,000 active; active means well fitted inhibition curve with a large enough effect; inconclusive means small, poorly fitted or top-dose-only effect; inactive means no such curve, though single readings can be large or run the other way; tested in A549 cells; further: nearly all actives have a fitted effect of over 30% in size; inactives centre near -10
The depositor's hits bear a star; i = inactive; ? = inconclusive; . = no result given; & = joins results of further samples; [ ] = dose if it differs, or a comment. On the % scale 0 is the no-effect control and ±100 the full control effect; potency means the concentration at half of the fitted maximal effect.

smiles	Vaccinia mCherry	Vaccinia Venus
COc1cc2c(NC3CCN(C(C)C)CC3)nc(N3CCCN(C)CC3)nc2cc1OCCCN1CCCC1	0.891µM*	1µM*
CC1=C(/C=C/C(C)=C\C=C\C(C)=C\C(=O)O)C(C)(C)CCC1	-5.3%	-2.5%[3.33 µM]
COc1ccc(C(=O)NCCN2CCOCC2)c(OC)c1	2.9%	-4.9%
Cc1ccc(C)c(N2CCN(C(c3ccncc3)c3nnnn3Cc3ccccc3)CC2)c1 (stereo unspecified)	-1.9%	-1.2%
CN(C)c1nc(CN2CCCCC2c2cccnc2)nc2ccccc12 (stereo unspecified)	-16.3%	-7.1%
O=C(O)c1ccc2c(c1)N(Cc1ccc(F)cc1)C(=O)c1ccccc1S2=O (stereo unspecified)	-12.5%	?
COc1ccc(N2C(c3cc(OC)cc(OC)c3)=Cc3ccccc3C2CC(C)=O)cc1 (stereo unspecified)	8.5%	-6.6%
CCOc1cc(/C=C2\CCC/C(=C\c3cc(Cl)c(O)c(OCC)c3)C2=O)cc(Cl)c1O	-12.4%	93.0%[activator]
C=CC[C@H](CC(=O)N(CCO)Cc1ccccc1)C(=O)NCCOC(=O)[C@@H](CC=C)CC(=O)OC(C)(C)C	-20.6%	-24.0%
Cc1ccc(C)c(S(=O)(=O)N2CCN(C(C)C(=O)Nc3ccccc3-c3ccccc3)CC2)c1 (stereo unspecified)	-2.9%	-24.5%
Cc1c(C(=O)N2CC(C)OC(C)C2)oc2ccccc12 (stereo unspecified)	-21.4%	-16.7%
CCCCC(=O)Nc1ccc(C(=O)OC2CCCCC2)cc1	.	-27.5%
CNC(=O)c1cc2cc(OC)ccc2n1CCN(C)C	.	6.6%
O=c1c(-c2ccccc2)c(O)c2ccccc2n1-c1ccccc1	-18.8%	-7.7%
CC(C)(O)C#Cc1ccc(CNC[C@H]2O[C@@H](n3cnc4c(=O)[nH]c(N)nc43)[C@H](O)[C@@H]2O)s1	10.0%	-2.2%
CC1(C(=O)Nc2ccc3c(c2)OCO3)CCN1Cc1cccc2c1OCO2 (stereo unspecified)	11.9%	15.0%
COc1ccc(C(CNC(=O)c2cc(S(=O)(=O)NCc3ccccc3)ccc2C)N2CCOCC2)cc1 (stereo unspecified)	-13.0%	-12.3%
CCN(CC)C1Oc2cc3c(cc2C(c2cc(OC)c(OC)c(OC)c2)C1C)OCO3 (stereo unspecified)	i	?
Cc1cc(-c2cc(C)c(N)c(C)c2)cc(C)c1N	-3.9%	-13.2%
CN(C(=O)Oc1ccc([N+](=O)[O-])cc1)c1ccccc1	-17.8%	-23.7%
C=CC[C@@H](CC(=O)NCCO)C(=O)N[C@H](C)COC(=O)[C@@H](CC=C)CC(=O)OC(C)(C)C	i	-4.0%
CCOc1cccc(C(=O)Nc2cccc(C(C)=O)c2)c1	-12.0%	-3.3%
COc1ccccc1/C=N/Nc1nc(C)c(C(C)=O)s1	?	-15.1%
Cc1nc(-c2cc(-c3nc(-c4ccc(C(C)(C)C)cc4)no3)no2)cs1	-9.2%	-13.8%
COc1cccc(CN2CCN(c3ccc(F)cc3)CC2)c1OC	?	-16.1%
O=C1NC(=O)C(Cc2ccccc2)(Cc2ccccc2)C(=O)N1Cc1ccccc1	-26.6%	?
CC(=O)N1CCC(C(=O)Nc2ccc(S(=O)(=O)NCCc3ccccc3)cc2)CC1	-14.5%	-2.6%
CC(C)C(NC(=O)c1ccoc1)c1nnc2n1CCN(Cc1ccc3c(c1)Cc1ccccc1-3)CC2 (stereo unspecified)	-6.9%	-2.8%
O=C(CCNS(=O)(=O)c1ccc(Br)cc1)NCC1CCCO1 (stereo unspecified)	-10.8%	-7.7%
Cc1cccc(-n2c(O)c(C=Nc3ccc(S(N)(=O)=O)cc3)c(=O)[nH]c2=O)c1	i	-10.2%
CCC(=O)Nc1nnc(SCc2cccc(F)c2)s1	-3.8%	-5.4%
Cc1[nH]n(-c2ccccc2)c(=O)c1C=NC1CCCCC1	17.8%	-15.1%
COC(=O)CC(=O)CSc1nc2cc(C(=O)NCC(C)C)ccc2c(=O)n1CCc1ccccc1	-9.3%	-11.8%
O=C(NNC(=O)c1cccnc1Cl)c1ccc(F)cc1	i	-11.5%
CC1(C)CC(=O)C=C(NCCN2CCN(C(=O)Nc3ccc(Cl)c(Cl)c3)CC2)C1	.	-13.6%
CCOc1ccc(OCC)c(NC(=O)CN2CCN(c3ccc(C)cc3C)CC2)c1	-13.6%	-8.5%
COc1ccccc1NC(=O)COC(=O)c1ccc(S(=O)(=O)NCc2ccco2)cc1	.	0.1%
COc1cc(-c2n[nH]c(=S)n2/N=C/c2cccn2C)cc(OC)c1OC	i[7.34 µM]	5.5%[7.34 µM]
CC(C)N(Cc1nccn1C)C(=O)CC1C(=O)NCCN1Cc1ccccc1C(F)(F)F (stereo unspecified)	4.6%	3.0%
Nc1nc(N)c2cnnn2n1	i	-5.4%
O=C(c1ccc(OC2CCN(C/C=C/c3ccccc3)CC2)cc1)N1CCCC1	-25.7%	-25.8%
Cc1onc(-c2ccccc2)c1C(=O)Nc1ccc(Br)cc1Cl	i	-23.3%
CCOc1ccc(NC(=O)Cn2c(=O)n(Cc3ccc(C(=O)NCc4ccc(C)cc4)cc3)c(=O)c3ccccc32)cc1	?	?
Cc1cc(C)nc(SC2CCCCC2NS(=O)(=O)c2ccccc2)n1 (stereo unspecified)	-21.8%	-2.2%
CC(C)C(N)c1csc(Nc2ccc(C(=O)NCCCO)cn2)n1 (stereo unspecified)	4.2%	-1.0%
Cc1cc(C)cc(-n2cnc3cc(C(=O)O)ccc32)c1	-6.6%	-10.3%
CSc1nc(-c2ccco2)nn1C(=O)c1ccccc1	i	-6.9%
COc1ccc(N2C(=O)CSC23C(=O)N(CC(N)=O)c2ccccc23)cc1 (stereo unspecified)	2.3%	3.6%
CCN(CC)c1ccc(/C=N/NC(=S)NCc2ccc(OC)cc2)cc1	-22.7%	-4.7%
Cc1ccc(S(=O)(=O)N2CCOCC2)cc1C(=O)Nc1nc2ccccc2[nH]1	-11.7%	-14.2%
COc1ccc(NC(=O)c2cc([N+](=O)[O-])ccc2O)cc1	6.31µM*	?
O=C(NCCCN1CCCC1)[C@H](CSCc1ccccc1)N1Cc2ccccc2C1=O	-4.7%	-22.3%
O=c1c2cc(-c3ccccc3)sc2ncn1/N=C/c1ccco1	.	?
COc1cc(OC)cc(-c2c(-c3cccs3)c3cc(-c4cnc(N)nc4)ccc3n2C)c1	-20.4%	?
COc1ccc(C(C(=O)NCC2CCCO2)N(Cc2cccs2)C(=O)c2snc(C(N)=O)c2N)cc1 (stereo unspecified)	1.3%	24.5%
COC(=O)C1=C(c2ccc3ccccc3c2)C[C@@H]2CC[C@H]1N2C(=O)NC1CC1	-7.2%	-15.1%
COc1ccc2sc(N(Cc3cccnc3)C(=O)c3ccco3)nc2c1	-16.8%	?
CCOC(=O)c1c2ccccc2[n+]([O-])n1[C@@H](C)C(N)=O	-5.9%	-2.8%
CCN(CC)S(=O)(=O)c1cc(Br)c(C)cc1OC	i	0.0%
O=C(NCc1cccc(Cl)c1)c1cc(=O)[nH]c2ccccc12	-11.2%	6.7%

Additional results follow:
smiles	Vaccinia mCherry	Vaccinia Venus
CC(C)C1Nc2ccc(C(=O)NC3CCCCC3)cc2NC1=O (stereo unspecified)	-17.9%	-5.2%
CC[C@@]1(C(=O)OC)N[C@H](CN(C)C(=O)COc2ccccc2)[C@@H]2C(=O)N(C)C(=O)[C@@H]21	-16.4%	1.9%
Cc1oc(-c2ccc(Cl)cc2)nc1CS(=O)CC(=O)NC1CCCCCC1 (stereo unspecified)	-2.4%	-15.4%
O=C(Nc1cccc(F)c1)C1C2C=CC3(CN(CCCN4CCOCC4)C(=O)C13)O2 (stereo unspecified)	i	3.5%
CCOC(=O)N1CCN(c2c(N3CCOCC3)c(=O)c2=O)CC1	-3.4%	1.4%
CCOC(=O)CSC1=Nc2ccccc2C2=NC(CCC(=O)NCc3ccccc3)C(=O)N12 (stereo unspecified)	-7.4%	-2.0%
FC(F)(F)c1ccncc1-c1nnc(C2CCCCC2)o1	i[7.34 µM]	-3.6%[7.34 µM]
C=CCc1c(C)nc(-c2ccccc2)nc1N/N=C(\C)c1ccccc1	-11.1%	-9.2%
Cc1csc(=NC(=O)c2ccccc2)n1Cc1ccco1	-14.3%	4.8%
O=C(CN1CCN(c2ccccc2O)CC1)Nc1cccnc1Cl	?	-10.3%
O=C(NOCc1ccccc1)c1ccc([N+](=O)[O-])cc1	-20.4%	-14.2%
O=C(Cn1nnc(-c2ccc3c(c2)OCO3)n1)Nc1ccccc1C(=O)O	i	-5.4%
C=CCNC(=S)N/N=C/c1cn(-c2ccccc2)nc1-c1ccc(OC)cc1	-11.4%	-27.0%
CCNC(=O)c1cccc(S(=O)(=O)N2CCCCCC2)c1	i	-17.4%
O=C(C[n+]1cccc2ccccc21)c1ccccc1	-12.2%	1.9%
COC(=O)c1sccc1NC(=O)c1cc2c(s1)CCCC2	-14.6%	-16.8%
Cc1cc(C)c(NC(=O)COC(=O)Cc2cccs2)c(C)c1	-3.9%	-3.4%
CCN(CC)CCNC(C(=O)Nc1cc(C(F)(F)F)ccc1Cl)c1ccccc1 (stereo unspecified)	-25.9%	-23.8%
O=C(CCN1C(=O)C2C3CCC(C3)C2C1=O)Nc1ccccc1Cl (stereo unspecified)	-2.8%	-14.1%
O=C(Nc1ccccc1F)Nc1ccccc1N1CCCCC1	?	?
Cc1cc(C)cc(N(C(=O)c2sc(C)nc2C)C(C(=O)NC(C)(C)C)c2ccncc2)c1 (stereo unspecified)	-4.4%	-3.7%
COc1ccc2cc(/C=C/C(=O)N3CCN(CC(=O)N4CCCCCC4)CC3)ccc2c1	-23.1%	-6.4%
O=C(Nc1ccc2nn(-c3ccc(F)cc3)nc2c1)c1cccnc1	-23.0%	-10.7%
C=CC(COCc1ccccc1)N(CC(=O)OC)S(=O)(=O)c1cc(Br)ccc1OC (stereo unspecified)	-7.4%	-10.4%
O=C(O)CN(Cc1ccco1)S(=O)(=O)c1ccccc1	.	-13.3%
CCOc1ccc(N(CC(=O)NCC2CCCO2)C(=O)CCC(=O)Nc2nccs2)cc1 (stereo unspecified)	-13.0%	-8.0%
COC(=O)c1ccc(OCC(=O)Nc2ccsc2C(=O)OC)cc1	0.0%	2.5%
COc1cccc(N=C2C(=O)N3CCCc4cccc2c43)c1	-16.6%	-13.1%
O=C(NCc1cccs1)C1CCN(S(=O)(=O)c2cccc3cccnc23)CC1	i	-9.2%
CCN(C(=O)CCNC(=O)Cn1cnc2ccccc2c1=O)c1cc(OC)ccc1OC	-7.6%	2.1%
CCOC(=O)c1[nH]c(C)c(C(=O)NCc2ccco2)c1C	-5.5%	-1.4%
Cc1ccc(NS(=O)(=O)c2ccc(OCC(N)=O)cc2)cc1	-8.9%	-6.3%
CCCC(=O)Nc1ccc2c(c1)c1ccccc1n2CC	-10.6%	?
Cn1c(-c2ccc(Br)o2)nc2ccccc21	-2.0%	?
CCOC(=O)C1=C(C)N(CCCCCC(=O)O)C(=O)NC1c1ccccc1OC(=O)c1cccs1 (stereo unspecified)	7.0%	-7.6%
O=C1C2CCCN2C(=S)N1c1ccccc1 (stereo unspecified)	-10.3%	-3.6%
CC(NC(=O)c1ccc(N2Cc3ccccc3Oc3ncccc32)s1)c1ccccc1 (stereo unspecified)	-4.3%	-6.0%
COc1ccccc1C(=O)CN1C(=O)NC2(CCCc3ccccc32)C1=O (stereo unspecified)	i	-1.2%
COc1cccc(CNC(=O)Cn2nc(N3CCN(c4ccccc4OC)CC3)ccc2=O)c1	-17.0%	-10.4%
COc1ccc(N2C(=O)c3ccccc3NC2c2ccc(OC)c(COc3ccccn3)c2)cc1 (stereo unspecified)	34.2%&-12.4%[activator]	4.9%&-3.5%
COc1ccc(NC(=O)C2CCN(c3ccc(Sc4ccc(C)cc4)nn3)CC2)cc1	-0.9%	-8.6%
Cc1cccc(C)c1-n1nnnc1SCSc1nnnn1-c1c(C)cccc1C	i	-7.6%
COc1cccc(NC(=O)Nc2c(C)n(C)n(-c3ccccc3)c2=O)c1	-5.9%	-5.3%
CC(O)CNc1ccc(-c2nn(C)c(=O)c3ccccc23)cc1[N+](=O)[O-] (stereo unspecified)	-5.9%	-1.7%
CCNc1ncnc2c1nnn2C	-0.8%	-9.9%
Cc1cccc(N2CCN(CC(O)COc3ccccc3)CC2)c1 (stereo unspecified)	-19.1%	-16.0%
CC(CCCN(C)C)C(Cc1ccccc1)c1ccccc1 (stereo unspecified)	-24.3%	-16.1%
CN(C)C1N(C(=O)c2ccccc2)N=C2c3ccccc3S(=O)(=O)N21 (stereo unspecified)	i	-15.9%

Arranged by formula weight (descending): some entries from above.
smiles	Vaccinia mCherry	Vaccinia Venus
Cc1cccc(C)c1-n1nnnc1SCSc1nnnn1-c1c(C)cccc1C	i	-7.6%
CN(C)C1N(C(=O)c2ccccc2)N=C2c3ccccc3S(=O)(=O)N21 (stereo unspecified)	i	-15.9%
CC(O)CNc1ccc(-c2nn(C)c(=O)c3ccccc23)cc1[N+](=O)[O-] (stereo unspecified)	-5.9%	-1.7%

Screens as filed in PubChem.
